Compound activity as filed in PubChem.
GIV-Gai inh: blocks GIV peptide binding to rat Galpha-i3 | P08753 | Galpha-i3/FITC-GIV peptide fluorescence polarization, 90 min; hits give low values; scaled: aluminum fluoride 0%, vehicle 100% | percent of control (FP), % (no concentration beside the values) | actives 0.42% (n = 210,000) | AID 1224905;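 active means replicate mean at 85% of control or lower, very high polarization wells dropped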;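 further: wells of about 15 µL received 100 nL stock; the first replicate is given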
Target sequence (P08753 whole entry, looked up): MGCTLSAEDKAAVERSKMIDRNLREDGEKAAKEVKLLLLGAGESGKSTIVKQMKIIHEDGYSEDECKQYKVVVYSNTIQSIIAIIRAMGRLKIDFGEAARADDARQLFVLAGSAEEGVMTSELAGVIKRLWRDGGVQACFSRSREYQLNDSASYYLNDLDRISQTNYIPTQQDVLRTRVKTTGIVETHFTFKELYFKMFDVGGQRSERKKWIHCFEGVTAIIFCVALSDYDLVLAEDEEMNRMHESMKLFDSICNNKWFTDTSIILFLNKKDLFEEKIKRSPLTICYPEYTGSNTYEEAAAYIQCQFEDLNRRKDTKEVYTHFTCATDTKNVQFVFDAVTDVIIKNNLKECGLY
Sa growth inh: S. aureus growth inhibition; S. aureus RN4220 growth, OD600, 20 h, 42 °C; hits give low values; relative growth, % (test concentration not listed); actives 0.53% (n = 170,000); AID 720641;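 active means growth at 42 °C up to 50% and 20 or more points under that at 30 °C, or under 10% at both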;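 further: 300 nL library stock went into each well; scaled to the means of positive and negative controls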
HCMV NEC inh: inhibitors of HCMV UL50-UL53 nuclear egress complex interaction | inhibition, % (concentration not given with the values) | AID 1918969 | HTRF UL50-UL53 interaction, normalized percent inhibition | actives 0.15% (n = 190,000);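 active means both replicates at 50% or more, plus weaker picks with an unusually low signal ratio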;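 further: stock transfer was 100 nL into about 20 µL; 0% = negative control wells and 100% = wells with untagged competitor protein; inactives centre near -12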
Sa growth inh second temp: recorded beside Sa growth inh, whose call it bears; relative growth, %; measured here: growth at 30 °C;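 optical density after 20 h as mean of two plates; 100% = untreated growth and lower means inhibition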
The depositor's hits bear a star; · = not tested or not shown; & = joins results of further samples.

Values run as follows: GIV-Gai inh	Sa growth inh	Sa growth inh second temp	HCMV NEC inh
CCOC(=O)C(C)n1cnc2sc3c(c2c1=O)CCC3 (stereo not given)
→ 115&133	104	102	-11&-4
CCSc1nc2sc3c(c2c(=O)n1-c1ccccc1)CC(C)(C)OC3
→ 99&100	94	91	-11&-7
Cc1ccc(NC(=O)CN(C)C(=O)CSc2nnc(-c3ccccc3)n2N)cc1
→ ·	84	93	-3
NCCCc1ccc(F)cc1
→ 104	129	80	2
O=C(Nc1ccccc1)N1CCCC(c2nc(-c3cccs3)no2)C1 (stereo not given)
→ 102	104	79	-16
CCC(C)NC(=O)Nc1cc2c(cc1N1CCCCC1)n(CC)c(=O)n2CC (stereo not given)
→ 100	·	·	-18
c1coc(-c2cn3c(n2)sc2ccccc23)c1
→ ·	109	50	12
COc1nc(N2CCc3ccccc32)nc(N2CCc3ccccc32)n1
→ ·	129	91	0
CCN1C(=O)NC(c2ccc([N+](=O)[O-])cc2)C(C(=O)OCCc2ccccc2)=C1C (stereo not given)
→ 105	·	·	-4
CCCOc1ccc(NC(=O)CC2C(=O)N(c3ccc(C)cc3)C(=O)N2C(C)C)cc1 (stereo not given)
→ 106	123	104	·
Cc1ccc2c(c1)c1c3n2CCN(C/C(=N/O)c2ccc(Br)cc2)C3CCC1 (stereo not given)
→ 127	120	77	·
CCc1cccc(NC(=O)c2cc3c(=O)n(Cc4ccc(OC)cc4)ccc3nc2C)c1
→ 88	86	87	·
Cc1ccc(Nc2ccc(N3CCN(C(=O)c4cccc([N+](=O)[O-])c4)CC3)nn2)cc1
→ 102	119	77	·
O=C(c1cccc(N2CCCC2=O)c1)N1CCOCC1
→ 95	108	97	-5
O=c1ccc(C(F)(F)F)cn1Cc1ncc(-c2ccccc2)o1
→ ·	116	96	15
O=C(O)COc1ccc(/C=C2\C(=O)NC(=O)N(c3cccc(F)c3)C2=O)cc1Cl
→ 106	·	·	-5
COc1ccc(C(=O)NCCSc2c(C)[nH]c3ccccc23)cc1
→ 109	97	76	15
Nc1nc(CC(=O)c2ccccc2)cs1
→ ·	90	88	-34
CCS(=O)(=O)C1=NSC2=NC(=O)/C(=C\c3ccco3)C(=N)N21
→ 101	101	93	-63
CN(Cc1ccccc1)c1nnc(NC(=O)Cn2c(=O)oc3ccccc32)s1
→ 99	94	76	2
S=c1n(CN2CCCCC2)c2ccccc2n1CN1CCCCC1
→ 110	108	77	-34
Cc1ccc(-n2nnnc2S(C)(=O)=O)c(C)c1
→ ·	76	84	-10
Cn1c(=O)oc2cc(N)ccc21
→ 101	95	78	8
O=C(NC1CCCC1)c1cc2n(n1)CCCN(Cc1cccc(F)c1)C2=O
→ 102	·	·	-13
CCn1c(-c2ccc3c(c2)OCCO3)cnc1SCC(=O)Nc1ccccc1C(=O)NC1CC1
→ ·	77	28	-20
COCCNCc1ccccc1
→ ·	100	92	-4
COc1ccc(CC(=O)N/N=C2/CC(=O)CC(C)(C)C2)cc1
→ 104	92	79	-24
CCC(C(=O)Nc1cccc(Cl)c1)n1nc(C)c2c(C)n(-c3ccccc3)nc2c1=O (stereo not given)
→ 97	·	·	-7
CCNc1nc(SCCOc2ccccc2)nc(N(C)C)n1
→ 106	89	75	-17
O=C(OC1CCSC1)c1cc(C(F)(F)F)cc(C(F)(F)F)c1 (stereo not given)
→ 104	87	95	7
O=S(=O)(c1ccc(Cl)cc1)N(Cc1ccccc1)S(=O)(=O)c1ccc(Cl)cc1
→ 104	108	87	-30
CCCn1c(=O)c2[nH]c(-c3ccc(S(=O)(=O)O)cc3)nc2n(CCC)c1=O
→ 109	·	·	-42
O=C(Nc1ccc(Oc2cccnc2)nc1)c1ccc(C(F)(F)F)cc1
→ 101	104	90	-25
CCOC(=O)c1ccccc1NC(=O)c1cc2c(s1)-c1ccccc1SC2
→ 99	102	84	-16
O=C1CCC(C(=O)NC2CCCCCC2)=NN1
→ ·	94	93	-8
O=C(C1CCC(Cn2c(=O)c3sccc3n(Cc3cccc(F)c3)c2=O)CC1)N1CCCCC1 (stereo not given)
→ 98	61	79	·
CCOC(=O)c1c(N)sc2c1CCC(Br)C2=O (stereo not given)
→ 106	·	·	-68
O=C(NCCc1ccccc1)C1CCN(c2nnc(-n3cccc3)s2)CC1
→ 105	115	97	5
CCOCCCN1C(=O)CN(C2CCCCCC2)C(=O)C1c1ccc(OC(C)C)c(OC)c1 (stereo not given)
→ 114	111	91	·
Cc1cccc(C)c1NC(=O)C1CCCN(Cc2ccccc2)C1 (stereo not given)
→ 98	98	88	-8
CCOC(=O)c1cnc2ccc(OCC)cc2c1NCCN(C)C
→ 107	105	80	-19
COc1ccc(-c2noc(CN(C)S(=O)(=O)c3c(C)cc(C)cc3C)n2)cc1OC
→ 97	106	98	-20
O=C(/C=C/c1cn(-c2ccccc2)nc1-c1cc2ccccc2o1)N1CCOCC1
→ ·	83	87	-31
COc1ccccc1N1CCN(c2ccc(NC(=O)c3ccccc3Cl)c(C(=O)O)c2)CC1
→ 99	·	·	-35
CCOC(=O)c1oc2ccccc2c1COC(=O)c1ccc(S(=O)(=O)N2CCCC2)cc1
→ ·	76	91	-22
CC1CCC(NS(=O)(=O)c2ccc3c(c2)oc(=O)n3C)CC1 (stereo not given)
→ 108	101	83	·
CCOC(=O)N1CCc2c(sc(NCc3cc(OC)ccc3OC)c2C(=O)Nc2cc(OC)ccc2OC)C1
→ 109	95	86	·
Cc1c(C(=O)OCC(=O)N(C)C2(C#N)CCCCC2)oc2ccc(Br)cc12
→ ·	104	94	-6
COc1ccc(C)cc1NC(=O)C(=O)NCC(c1cccnc1)N1CCc2ccccc21 (stereo not given)
→ 105	103	85	-19
NC(=O)N/N=C(/C=C/c1ccccc1)C1(O)CCCCC1
→ 108	92	96	1

6 entries drawn at random from the list so far, as already listed:
Values run as follows: GIV-Gai inh	Sa growth inh	Sa growth inh second temp	HCMV NEC inh
COc1ccccc1N1CCN(c2ccc(NC(=O)c3ccccc3Cl)c(C(=O)O)c2)CC1
→ 99	·	·	-35
COc1ccc(-c2noc(CN(C)S(=O)(=O)c3c(C)cc(C)cc3C)n2)cc1OC
→ 97	106	98	-20
Cc1c(C(=O)OCC(=O)N(C)C2(C#N)CCCCC2)oc2ccc(Br)cc12
→ ·	104	94	-6
O=C(/C=C/c1cn(-c2ccccc2)nc1-c1cc2ccccc2o1)N1CCOCC1
→ ·	83	87	-31
COc1ccc(C)cc1NC(=O)C(=O)NCC(c1cccnc1)N1CCc2ccccc21 (stereo not given)
→ 105	103	85	-19
CCOC(=O)c1oc2ccccc2c1COC(=O)c1ccc(S(=O)(=O)N2CCCC2)cc1
→ ·	76	91	-22

Later entries:
Values run as follows: GIV-Gai inh	Sa growth inh	Sa growth inh second temp	HCMV NEC inh
Cc1cccc2c1N(Cc1ccccc1OCCC(C)C)C(=O)C2=O
→ 107	103	94	4
CCC(C(=O)Nc1cc(OC)ccc1OC)n1c(C(=O)OC)cc2ccsc21 (stereo not given)
→ 102	·	·	-4
COc1ccc(C2CC(=O)C3=C(C2)Nc2ncnn2C3c2ccc(O)c(OC)c2)cc1 (stereo not given)
→ 101	·	·	-18
CCOC(=O)N1CCc2c(sc3c2c(=O)n(Cc2ccccc2)c(=O)n3Cc2ccccc2Cl)C1
→ 104	106	90	-49
Cc1nc(-c2cccc(NC(=O)Cc3ccccc3Br)c2)no1
→ 96	·	·	-15
CCCCn1cc(S(=O)(=O)c2ccccc2)c(=O)c2cc(F)c(N3CCN(CCC)CC3)cc21
→ 110	100	94	·
Cc1cc(C)c(O)c(N)c1
→ 116	36	16	-48
O=C(c1ccccc1O)N1N=C(C(F)(F)F)CC1(O)C(F)(F)F (stereo not given)
→ ·	58	42	-9
CC1=C(C(=O)Nc2ccccc2)C(c2ccc(C)o2)n2c(s/c(=C/c3ccc(N(C)C)cc3)c2=O)=N1 (stereo not given)
→ 189	·	·	-37
O=C(O)c1c[nH]c(=O)c2ccccc12
→ 100	·	·	-16
O=c1c2sc3ccccc3c2n(Cc2cccc(Cl)c2)c(=O)n1Cc1ccco1
→ 101	101	82	-8
O=C(NCC1COc2ccccc2O1)c1cn(-c2ccc(F)cc2)nn1 (stereo not given)
→ 108	110	92	-4
Cc1ccc(NC(=O)N2CCC(CN3CCOCC3)CC2)cc1F
→ 103	96	106	6
CC1CCCC(C)N1C(=O)CSc1nc2ccccc2[nH]1 (stereo not given)
→ ·	97	89	-4
O=C(NCc1cccs1)C(NS(=O)(=O)c1ccc(Br)s1)c1ccccc1 (stereo not given)
→ 106	111	95	-6
CN1CCN(C(=O)c2cccc(S(=O)(=O)N(C)C)c2)CC1
→ 103	103	96	-10
Cn1c(SCC(=O)N2CCCc3ccccc32)nnc1-c1ccccc1N
→ 99	104	89	-15
CCOC(=O)C1=C(C)N(C)C(=O)N(C)C1c1ccccc1 (stereo not given)
→ 102	112	85	-24
CC(=O)c1ccc(NS(=O)(=O)c2ccc(-c3cnc(C4CC4)o3)cc2)cc1
→ 99	85	94	·
Cc1c(-c2cc(C(=O)Nc3ccc4c(c3)OCCO4)c3ccccc3n2)cnn1-c1ccc(F)cc1
→ 99	·	·	-38
CN1CN(C)c2ccc(Br)c3cccc1c23
→ ·	102	90	-30
CCSc1nnc(-c2ccc(S(=O)(=O)N3CCOCC3)cc2)n1C
→ 99	89	88	-25
O=c1ccc(S(=O)(=O)N2CCCC2)cn1Cc1c(-c2ccccc2)nc2sccn12
→ ·	89	95	-20
Cc1ccccc1Cn1ccc(NC(=O)COCc2cc(-c3cccs3)on2)n1
→ 101	94	82	-22
COc1cccc(N2CC(=O)N(/N=C/c3ccc(C)o3)CC2=O)c1
→ 106	84	82	-105
Cc1ccc(CCNC(=O)CN(c2ccc(C(C)C)cc2)S(=O)(=O)c2c(C)nn(C)c2C)cc1
→ 105	109	92	-4
O=C(CCc1nc2ccccc2[nH]c1=O)OCc1ccc(Br)cc1
→ 98	98	92	-29
CCN(CC)S(=O)(=O)c1ccc(-c2nnc(SCC(=O)N3CCCC3)n2CC)cc1
→ 98	90	116	3
CCOc1cccc(C2Nc3ccccc3-c3cc(C)nn32)c1O (stereo not given)
→ 111	104	105	24
O=C(/C=C/c1ccc2c(c1)OCO2)/C=C/c1ccc2c(c1)OCO2
→ 121	120	84	·

Single entries from the results shown:
CCCOc1ccc(NC(=O)CC2C(=O)N(c3ccc(C)cc3)C(=O)N2C(C)C)cc1 (stereo not given) in Sa growth inh second temp shows 104
CCc1cccc(NC(=O)c2cc3c(=O)n(Cc4ccc(OC)cc4)ccc3nc2C)c1 in Sa growth inh second temp shows 87

Following part
Values run as follows: GIV-Gai inh	Sa growth inh	Sa growth inh second temp	HCMV NEC inh
CO[C@@]12[C@H](COC(N)=O)C3=C(C(=O)C(C)=C(N)C3=O)N1C[C@@H]1N[C@@H]12
→ 101	0.0*	-0.8*	-166&-146
Cn1c(SCC(=O)NCCN2C(=O)S/C(=C\c3ccccc3F)C2=O)nnc1-c1ccco1
→ ·	96	95	-15
CCCN(CCC)C(=O)Cn1c(=O)n(-c2ccccc2)c(=O)c2c1c1cc(OC)ccc1n2C
→ 99	·	·	-40
O=C(O)CC1(CC(=O)Nc2ccccc2N2CCOCC2)CCCC1
→ 101	111	91	-1
COc1cc(-c2nnc(SCC(=O)NCc3ccccc3Cl)o2)cc(OC)c1OC
→ 100	100	92	7
O=C(O)CCN1c2ccccc2Sc2ccccc21
→ ·	97	77	-31
N#CC(C#N)=C1SCN(c2cccc(Cl)c2)CS1
→ 105	73	55	-5
COCCCNC(=O)c1oc2c(c1C)-c1nn(Cc3cccc(Cl)c3)cc1CC2
→ 98	97	87	-21
C=C(C)Cn1c(SCC(C)O)nc2c1c(=O)[nH]c(=O)n2C (stereo not given)
→ 94	87	81	-10
CCn1cnc2c(=O)oc3ccc(S(=O)(=O)N4CCN(c5cc(C)ccc5C)CC4)cc3c21
→ 109	109	86	-13
CNC(=O)Nc1cccc(-c2ccnc(C)n2)c1
→ 101	106	87	-33
Cc1ccc(C)c(N(C)C(=O)C2CCN(c3ncnc4c3nc3n4CCCCC3)CC2)c1
→ 107	129	101	·
CCOc1ccc(OCC)c(NC(=O)c2c(C)nc3ccccn23)c1
→ 102	118	89	-27
CCC(C)NS(=O)(=O)c1ccc(NC(=O)c2cccs2)cc1 (stereo not given)
→ 101	109	101	7
CCN(CC)C(=O)c1sc2nc(-c3ccccc3)ccc2c1N
→ 102	94	83	-45
COc1ccccc1N(CC(=O)Nc1ccccc1)S(C)(=O)=O
→ 101	92	77	·
COc1cccc(C(=O)NCCN2CCN(c3ccc(Cl)cc3)CC2)c1
→ 97	·	·	-33
CCOC(=O)c1sc2sc(C(=O)OCC)c(-c3ccco3)c2c1N
→ 101	93	77	-4
COc1ccc(Cc2nnc3sc(-c4cc(CC(C)C)[nH]n4)nn23)cc1
→ 107	·	·	-24
CSc1nc(N)n2nc(-c3ccccc3)cc2n1
→ 107	98	92	-4
FC(F)(F)c1nc2ccccc2nc1N1CCC2(CC1)OCCO2
→ 103	·	·	-21
O=C(CCCn1c(SCC(=O)c2ccc(F)cc2)nc2ccccc2c1=O)NCc1ccccc1
→ 99	93	74	·
CCc1ccc(C(c2ccccc2)c2c(C)[nH]c3ccccc23)s1 (stereo not given)
→ 107	91	91	·
Cc1ccc2c(c1)-c1c(cnn1CC(=O)Nc1ccccc1N1CCN(C)CC1)CO2
→ 101	100	81	-19
CCOc1ccccc1Nc1sc(C(=O)c2ccc(Cl)cc2)c(N)c1S(=O)(=O)c1ccccc1
→ 100	91	89	·
COc1ccc(Nc2ncnc3c2cnn3-c2ccc(C)cc2)cc1Cl
→ 110	124	99	·
CCOC(=O)CCc1c(C)nc2nc(CNc3ccccc3Cl)[nH]n2c1=O
→ 104	·	·	-38
